Screening results (PubChem BioAssay)
ClpP mod: qHTS Assay for Activators of ClpP; 1.9% of 340,000 active; ATP-dependent Clp protease proteolytic subunit (Bacillus subtilis (strain 168)), P80244; purified B. subtilis ClpP, FRET peptide cleavage, 20 min; Potency, µM (doses to about 57.5 µM), for the others: at the top dose activity change, negative = active; active = well fitted falling curve with a large enough effect; inconclusive = small, poorly fitted or top-dose-only effect; inactive = no such curve, though single readings can be large or run the other way; note: potency is the fitted concentration of half-maximal effect; the source files actives as falling curves though it sought activators and does not explain the sign; nearly all actives have a fitted effect of over 65% in size; many hits overshoot -100%
Target sequence (P80244 whole entry, looked up): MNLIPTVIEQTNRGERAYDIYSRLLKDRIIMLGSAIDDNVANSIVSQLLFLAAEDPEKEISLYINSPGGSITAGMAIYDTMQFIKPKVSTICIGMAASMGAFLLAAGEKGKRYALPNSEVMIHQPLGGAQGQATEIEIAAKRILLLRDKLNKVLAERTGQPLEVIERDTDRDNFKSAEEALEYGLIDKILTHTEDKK
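ClpP 10 microg/mL final, pH 8 Tris/KCl buffer with BSA, glycerol, Tween-20; compound pinned in; FRET-FV substrate; RT 20 min; Ex320/Em430; ΔFRET vs ADEP 5.8 microM, DMSO, no enzyme.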
gsp antagonist: antagonists of gsp mutant (McCune-Albright syndrome); gsp-mutant cells, cAMP HTRF, 30 min; control for the full effect not named in the record; Potency, µM (series often up to 76.9 µM), for the others: top-dose activity change, negative = inhibition, hits mostly inhibitors; 0.4% of 340,000 active; active = falling curve of any shape with a large fitted effect; inconclusive = falling curve, mostly with a smaller effect; inactive = flat or rising curve; cell line not stated here;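 note: intracellular cAMP measured with PDE inhibitor Ro 20-1724 present during compound exposure; potency is the fitted concentration of half-maximal effect; % is set by controls: 0 for no effect and ±100 for the full control effect; nearly all actives have a fitted effect of over 65% in size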
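G418-selected cells were plated in DMEM/10% FBS for 16-24 h at 37C, then treated with compounds plus the PDE inhibitor […] (300 uM solution added) for 30 min at 37C. Intracellular cAMP was measured by HTRF after 30 min lysis at room temperature.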
Menin-MLL FL inh: displaces fluorescein MLL peptide from human menin; FP activity change, % at 61.4 µM; 290,000 tested, under 10 active; Fluorescence polarization, fluorescein-MLL peptide displacement from menin; inconclusive = falling polarisation curve, or a change in total fluorescence; inactive = total fluorescence flat and polarisation flat or rising; no compound was filed as active; the % refers to the polarisation; negative = inhibition;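 note: % of control where 0% means no effect; inhibitors lower the polarisation; unlabelled MLL peptide was the positive control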
D2 PAM: human D2 receptor positive allosteric modulation; potentiation, % (no concentration beside the values); P14416; DiscoveRx D2 beta-arrestin cells, luminescence, 90 min; 100% = 57 uM dopamine signal; 0.23% of 360,000 active; active = potentiation of 50% or more; inconclusive = 30% to 50%; inactive = 30% or less;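 note: compound concentration not given in the record; tested on top of an EC20 dose of dopamine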
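PathHunter beta-arrestin assay in DiscoveRx D2 cells. Compounds were added with an EC20 of dopamine (50 nM final) for 90 min at 37 deg C. Luminescence was read 1 h after detection reagent, with 57 uM dopamine as the EC100 control.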
Sfp PPTase inh: blocks B. subtilis Sfp PPTase activity | Biochemical Sfp PPTase activity, qHTS | 3.5% of 310,000 active | Q9F4F7 | Potency, µM, for the others: max response, negative = inhibition, hits mostly inhibitors; active = well fitted inhibition curve with a large enough effect; inconclusive = small, poorly fitted or top-dose-only effect, or another doubt; inactive = no such curve, though single readings can be large or run the other way;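 note: the enzyme is Sfp with the accession as filed and its product quenches rhodamine fluorescence; potency is the fitted concentration of half-maximal effect; 0% = enzyme reaction without inhibitor and -100% = no enzyme wells; top concentration of the series not given in the record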
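Buffer: 50 mM Hepes-Na pH 7.6, 10 mM MgCl2, 0.01% Nonidet P-40, 0.01% BSA. Enzyme 15 nM, pre-exposed to compound 15 min; substrates then added and fluorescence change tracked over 30 min.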
TRPV1 potentiator: enhances activation of the human vanilloid receptor TRPV1; TRPV1-expressing cells, Fluo-8 calcium influx, capsaicin EC20 potentiation; host cell line not named in the record; control for the full effect not named in the record; potentiation, % at 8.33 µM; 0.02% of 320,000 active; AID 540277; active means potentiation above 80%; inconclusive means 30% to 80%; inactive means below 30%; note: 0% is about no effect
Target sequence (Q8NER1 whole entry, looked up): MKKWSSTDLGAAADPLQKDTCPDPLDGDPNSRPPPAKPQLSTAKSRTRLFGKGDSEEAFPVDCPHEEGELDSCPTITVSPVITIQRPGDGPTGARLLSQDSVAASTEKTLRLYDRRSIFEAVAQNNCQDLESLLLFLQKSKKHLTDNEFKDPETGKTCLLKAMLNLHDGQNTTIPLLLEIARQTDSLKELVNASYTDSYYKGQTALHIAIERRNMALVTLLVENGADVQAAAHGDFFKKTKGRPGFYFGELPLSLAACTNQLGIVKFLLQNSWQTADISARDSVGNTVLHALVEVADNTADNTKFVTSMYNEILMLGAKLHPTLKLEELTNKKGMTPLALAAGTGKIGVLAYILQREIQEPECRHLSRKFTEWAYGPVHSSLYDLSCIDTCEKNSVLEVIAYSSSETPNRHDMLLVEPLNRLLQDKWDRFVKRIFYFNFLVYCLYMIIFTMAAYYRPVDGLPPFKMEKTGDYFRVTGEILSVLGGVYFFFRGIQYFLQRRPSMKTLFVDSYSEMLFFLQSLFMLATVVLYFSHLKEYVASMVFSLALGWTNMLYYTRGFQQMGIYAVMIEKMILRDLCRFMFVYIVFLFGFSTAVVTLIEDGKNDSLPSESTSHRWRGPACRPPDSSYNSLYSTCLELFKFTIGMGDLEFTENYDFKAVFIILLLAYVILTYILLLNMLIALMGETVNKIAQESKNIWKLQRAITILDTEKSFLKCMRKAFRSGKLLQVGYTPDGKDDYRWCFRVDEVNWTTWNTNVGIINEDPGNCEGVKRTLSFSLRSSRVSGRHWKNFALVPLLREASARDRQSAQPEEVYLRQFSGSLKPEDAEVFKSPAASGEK
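TRPV1-expressing cells were cultured overnight at 35.5C and loaded with Fluo-8 calcium dye for 40 to 90 min at room temperature. After a 10 s baseline, compound was added and calcium influx was read kinetically for 3 min (ex 480/em 520 nm).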
gsp ag: activates gsp, the McCune-Albright syndrome mutation; gsp mutant cells, cAMP HTRF, 30 min; control for the full effect not named in the record; Potency, µM (titrated, usually from 76.9 µM), for the others: at the top dose activation (cAMP increase), usual class: activators; 0.13% of 340,000 active; active = well fitted activation curve with a large enough effect; inconclusive = small, poorly fitted or top-dose-only effect, or another doubt; inactive = no such curve, though single readings can be large or run the other way; cell line not stated here;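 note: phosphodiesterase inhibitor Ro 20-1724 added with compounds to block cAMP breakdown; potency is the fitted concentration of half-maximal effect; nearly all actives have a fitted effect of over 60% in size; about a fifth of the inactives were tested at one dose only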
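Cells stably selected in G418 were plated at 2000/well, grown 16-24 hr, then given compounds in DMSO with the PDE inhibitor […] (300 uM solution added) for 30 min at 37C; cAMP was read by HTRF.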
Numbers without * were called inactive; ? = inconclusive; · = no result given; [ ] = dose if it differs, or a comment. This is a random part of the collection; any-hit rate near 5.1%.

Values run as follows: ClpP mod	gsp antagonist	Menin-MLL FL inh	D2 PAM	Sfp PPTase inh	TRPV1 potentiator	gsp ag
Cc1c(C(=O)NC(C(C)C)C(C)C)cccc1[N+](=O)[O-]
→ -2.2%	9%	1.7	-11	-15%	?	21%
COCCNC(=O)CN(C)S(=O)(=O)c1ccc2c(c1)OCCO2
→ 0.5%	15%	4.7	-8	5%	5	?
O=c1c2ccccc2ncn1-c1ccc2c(c1)OCCO2
→ -0.1%	5%	1.0	-4	16%	1	-1%
CCOC(=O)C1=C(COC(=O)COc2ccc(C#N)cc2)NC(=O)NC1C (stereo unspecified)
→ 0.8%	-17%	·	-4	14%	-1	7%[15.4 µM]
CCN(CC)P(=O)(Nc1ccc([N+](=O)[O-])cc1)c1c(C)nn(CCC#N)c1NC(=O)c1ccc(Cl)cc1 (stereo unspecified)
→ ·	-15%	-1.2	-1	10%	-14	14%
O=C(CSc1ncn[nH]1)N1CCN(S(=O)(=O)c2ccccc2)CC1
→ -0.5%	4%	1.4	-12	11%	-1	?
CC(C)Cc1cc(C(=O)NCc2ccco2)no1
→ -4.4%	6%	-2.5	-7	-9%	-9	-33%[inhibitor]
COC(=O)c1cc(NC(=O)Cc2ccccc2[N+](=O)[O-])ccc1Cl
→ -0.7%	1%	0.4	-6	14%	15	4%
COc1ccc(C2CC(c3cccs3)=Nc3ccccc3S2)cc1OC (stereo unspecified)
→ -2.1%	8%	1.0	8	-5%	10	-62%[inhibitor]
CC(=O)Nc1ccc(S(=O)(=O)Nc2nccc(C3Cc4ccccc4C(=O)O3)n2)cc1 (stereo unspecified)
→ -2.2%	-1%	2.5	-1	2%	24	-42%[inhibitor]
Cc1ccccc1-c1ccc(C=Nc2c(C)n(C)n(-c3ccccc3)c2=O)o1
→ -4.4%	-10%	-3.2	4	-5%	?	-7%
Cc1csc(C(C#N)C(=O)c2ccncc2)n1 (stereo unspecified)
→ -1.3%	1%	-0.3	5	-10%	-3	-31%
COC(=O)c1ccc(-n2ccnc2)cc1
→ ·	-14%	2.3	2	2%	12	0%[15.4 µM]
CCOc1ccccc1N1CCN(C(=O)c2cc(S(=O)(=O)N(C)C)ccc2N2CCCC2)CC1
→ -2.7%	-25%	·	2	·	-17	-20%
O=C(N/N=C/c1c(F)cccc1Cl)C(=O)N1CCCCCC1
→ -2.3%	0%	·	-11	14%	-14	18%
Cc1ccc2nc(-c3ccccn3)cc(C(=O)NC(C)C(C)(C)C)c2c1 (stereo unspecified)
→ 0.9%	6%	-4.7	-7	11%	12	-2%[15.4 µM]
CSc1nc(N)nc(SC2C=CCCC2)c1C#N (stereo unspecified)
→ -1.3%	-15%	-0.2	4	2%	3	?
O=C(OCc1cc2ccccc2[nH]c1=O)c1ccco1
→ -10%	7%	0.4	-20	-10%	-5	15%
COc1ccc(Cc2n[nH]c(=S)n2NC(=O)Nc2ccc(C)cc2)cc1
→ -1.9%	1%	-2.5	-12	11%	-8	-24%
CC(=O)SCC(Cc1ccccc1)C(=O)NCC(=O)OCc1ccccc1 (stereo unspecified)
→ ·	·	-3.3	·	-2%	-7	·
O=[N+]([O-])c1cc(/C=N/N2CCN(Cc3ccccc3)CC2)ccc1Cl
→ ·	-2%	-0.6	-9	-3%	3	13%
O=C(c1ccccc1)n1nc(-c2ccccc2)nc1NCc1ccco1
→ 6.4%	-21%	3.4	-8	?	-5	?
CC(=O)C1=C(c2ccc(Br)cc2)C(=O)c2ccccc2C1=O
→ -0.8%	1%	1.7	25	-15%	1	-7%[15.4 µM]
CCCCc1cc(=O)oc2c(C)c(OCC(=O)N3C[C@H]4C[C@@H](C3)c3cccc(=O)n3C4)ccc12
→ 3.8%	-18%	-3.0	2	4%	1	-2%
COc1cccc(CC(CC(=O)O)C(=O)Nc2cc(C)ccc2C)c1 (stereo unspecified)
→ 1.5%	-5%	5.9	-3	-3%	1	?
CCc1ccc2c(CN3CCN(S(=O)(=O)c4ccccc4F)CC3)cc(=O)oc2c1
→ ·	-12%	·	-3	·	·	7%
COc1ccc(C#Cc2c(C=O)n(C)c3ccccc23)cc1
→ -25%	0%	·	-16	·	-3	?
O=C(CN1CCCCC1)Nc1ccc(S(=O)(=O)NC2CCCCC2)cc1
→ -0.9%	12%	4.0	-1	-4%	-4	-9%
Cc1ccc(S(=O)(=O)n2nc(-c3ccco3)nc2SCc2ccccc2)cc1
→ 0.5%	2%	-0.9	2	-5%	?	-25%
CNC(=O)COC(=O)c1cccnc1SC
→ -4.1%	-8%	-0.1	0	8%	-2	5%
CCn1c2ccc(CC(=O)O)cc2c2cc(CC(=O)O)ccc21
→ ?	-6%	2.5	-6	21%	4	-2%
CCCCNC(=O)c1sc2ncnc(N3CCc4ccccc4C3)c2c1C
→ ?	-12%	1.6	-19	4%	0	10%
Cc1c(C(=O)N2CCCCC2CCN2CCCC2=O)oc2c(F)cccc12 (stereo unspecified)
→ -2.8%	7%	·	-3	10%	-6	-2%
COc1ccc(-c2cnc3c(c2)C(=O)N([C@H](C)CO)C[C@@H](C)[C@H](CN(C)Cc2ccccc2)O3)cc1
→ -9.7%	·	·	-7	·	·	6%
CN(C)C(=O)c1ccc(NC(=O)COc2ccc([N+](=O)[O-])cc2)cc1
→ ·	·	-3.9	-22	16%	-17	14%[15.4 µM]
Cc1nn(CCO)c2ncc(C(=O)c3cc(F)ccc3O)cc12
→ ·	8%	4.6	-6	4%	?	-3%[15.4 µM]
Cc1cc(NC(=O)CSCCO)no1
→ 0.8%	4%	2.4	29	11%	-5	-16%
Cc1cccc(N2CCN(C(=O)COc3cccc4c3OC(C)(C)C4)CC2)c1C
→ 0.1%	?	4.1	1	?	9	?
CCOC(=O)c1ccc(-c2ccc(CO)o2)cc1
→ 0.71µM*	11%	2.4	18	-13%	-2	11%
CCn1cc(C(=O)N2CCc3ccccc32)c(=O)c2cc(S(=O)(=O)N3CCOCC3)ccc21
→ 3.3%	2%	2.3	-17	3%	-9	-2%
CC(=O)c1sc(NC(=O)c2c(F)cccc2F)nc1-c1ccccc1
→ ·	-8%	1.1	-2	-4%	10	?
Cc1cccc(NC(=O)c2nc[nH]c2C(=O)NCc2ccccc2)c1
→ 17%	-9%	·	-7	·	4	·
O=C(NC1CCCC1)C1CCN(C(=O)c2ccc(Cl)cc2)CC1
→ ·	10%	-3.3	-3	12%	-17	?
CCC(=O)N/C(N)=N/c1nc(C)c2cc(C)c(C)cc2n1
→ ·	-13%	3.9	-4	-3%	4	8%[15.4 µM]
O=C(Nc1nnc(SCc2ccc(F)cc2)s1)c1ccccn1
→ ·	-13%	-2.2	-18	2%	-2	-1%[15.4 µM]
c1ccc2c(c1)ccn2CCCN1CCCCC1
→ -2.6%	-3%	·	-27	·	·	-10%
COC(=O)Cn1c(=O)c2c(nc3n2CCCN3CCc2ccc(OC)c(OC)c2)n(C)c1=O
→ -4.5%	-12%	0.5	-7	8%	-17	-5%
Cc1ccc(-c2c(C(=O)N/N=C/c3ccc(OC(C)C)cc3)nnn2-c2nonc2N)cc1
→ 28µM*	?	·	3	14%	16	21%
S=C(NCCN1CCOCC1)Nc1ccc(Br)cc1
→ -2.1%	15%	4.1	-9	19%	2	-21%
COc1ccccc1N(CC(O)COc1ccc(C)cc1)S(=O)(=O)c1ccccc1 (stereo unspecified)
→ -2.8%	-28%	3.3	-2	21%	4	-2%
Cc1onc(-c2ccccc2Cl)c1C(=O)NNC(=O)c1nn(C)cc1Cl
→ ·	6%	-0.9	-4	14%	0	-1%[15.4 µM]
Cc1cc2nnc(SCc3ccccc3)n2c(N)n1
→ -0.1%	5%	1.3	-2	14%	-8	-6%
Cc1csc(NC(=O)CSc2nc(=O)n(CCCN(C)C)c3c2CCC3)n1
→ -10%	-3%	·	-11	·	7	26%
CCN1C(=O)/C(=C/N(C(C)=O)c2ccccc2)N(c2ccccc2)C1=S
→ 7.6%	4%	-2.9	-14	2%	-2	-27%
CCN(CCCNC(=O)C1CCN(S(=O)(=O)N2CCC3(CC2)OCCO3)CC1)c1ccccc1
→ -0.5%	-13%	1.6	-8	14%	4	-11%

Record cards, from the list above. Order of screens: ClpP mod	gsp antagonist	Menin-MLL FL inh	D2 PAM	Sfp PPTase inh	TRPV1 potentiator	gsp ag
COc1ccccc1N(CC(O)COc1ccc(C)cc1)S(=O)(=O)c1ccccc1 (stereo unspecified) across the screens: -2.8%	-28%	3.3	-2	21%	4	-2%
O=C(Nc1nnc(SCc2ccc(F)cc2)s1)c1ccccn1 across the screens: ·	-13%	-2.2	-18	2%	-2	-1%[15.4 µM]
CCC(=O)N/C(N)=N/c1nc(C)c2cc(C)c(C)cc2n1 across the screens: ·	-13%	3.9	-4	-3%	4	8%[15.4 µM]
CCn1c2ccc(CC(=O)O)cc2c2cc(CC(=O)O)ccc21 across the screens: ?	-6%	2.5	-6	21%	4	-2%
CCN1C(=O)/C(=C/N(C(C)=O)c2ccccc2)N(c2ccccc2)C1=S across the screens: 7.6%	4%	-2.9	-14	2%	-2	-27%
